# Compound activity (PubChem BioAssay)
# Sa ugtP lethal: growth inhibition of ugtP-null S. aureus, primary screen, RN4220 ugtP deletion, OD600; growth inhibition, % (concentration not given with the values); 330,000 tested, 0.54% active; 16 h; some inactives read as strong as hits;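 active = z-score under -3 and OD600 up to 0.15 on both plates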;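 note: plate controls were untreated wells for no effect and antibiotic for full effect; wells of about 80 µL received 100 nL stock; the first replicate is given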
# Autofluor counter: counter-screen for toxin protease inhibitors: compound fluorescence; compound autofluorescence counterscreen, microsphere flow cytometry; stronger effect = higher value; fluorescence intensity (no concentration beside the values); 360,000 tested, 3.1% active; AID 624483;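 active = at least 3 SD above the mean of all compounds, about 16000 in these data; inconclusive = too few beads counted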;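 note: 100 nL of 1 mM stock went into each well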
# PrP UTR inh: inhibition of PrP 5' UTR reporter expression; cell-based PrP 5' UTR mRNA reporter, plate reader; inhibition, % (no concentration beside the values); 340,000 tested, 0.35% active; AID 488862, 2010;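 active = every replicate at 50% or more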;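 note: 0 = median of the neutral control wells; tested in H4 reporter cells; numbers are from one replicate; inactives centre near -14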
# Mtb hypoxia inh: PubChem AID 1159583; 300,000 tested, 0.1% active; M. tuberculosis hypoxia-regulated fluorescent reporter, fluorescence; fluorescence inhibition, % (no concentration beside the values);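 active = 35 to 45% if threefold the growth effect, above 45% if 1.5-fold the growth effect; inactive = the rest, general growth blockers included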;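 note: wells of about 50 µL received 100 nL stock; 0% = vehicle wells and 100% = reference inhibitor wells; whole bacteria with a GFP reporter of the hypoxia response; strong numbers were not always called active; many hits fall short of the cut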
# BJeLR viability: MLPCN primary cell-based screen for lethality selective to Ras in HRASV12 cells; inhibition, % (test concentration not listed); AID 1554, 2009; BJeLR (HRASV12) viability, CellTiter-Glo ATP luminescence, 48 h; reference of the scale not given here; 300,000 tested, 0.17% active;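 active = replicate mean above 50%; inconclusive = above 50% but judged a plate artefact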;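 note: 50 nL library stock added to about 25 µL; numbers are from one replicate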
# RN4220 kill: growth inhibition of S. aureus RN4220, primary screen, OD600; 16 h; inhibition, % (concentration not given with the values); AID 1259311, 2017; 330,000 tested, 0.33% active;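 active = z-score of -3 or lower and OD600 up to 0.18 on both plates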;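 note: plate controls were untreated cells for no effect and reference antibiotic for full effect; stock transfer was 100 nL into about 80 µL; one replicate is shown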
# Mtb hypoxia inh growth: recorded beside Mtb hypoxia inh, whose call it bears; growth inhibition, %; measured here: M. tuberculosis growth (absorbance);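 0% = vehicle and 100% = reference antibiotic; read after six days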
# Numbers without * were called inactive; ? = inconclusive; / = not tested or not shown; & = joins results of further samples; ! = not active in a repeat. Compounds as they come; any-hit rate near 4%.
SMILES,Sa ugtP lethal,Autofluor counter,PrP UTR inh,Mtb hypoxia inh,Mtb hypoxia inh growth,BJeLR viability,RN4220 kill
COC(=O)Cc1c(C)nc2nc(NCc3cccc([N+](=O)[O-])c3)[nH]n2c1=O,-3,19811*,-51,12,3,8,0.6
CC(=O)N1CCCc2cc(S(=O)(=O)N3CCCC(C(=O)Nc4cc(C)ccc4C)C3)ccc21 (stereo not given),11,6036,-9,2,14,3,4.3
Cc1ccc(Nc2nc(N)c([N+](=O)[O-])c(N3CCC(C)CC3)n2)cc1C,/,2673,-9,/,/,-4,/
Cc1ccc2nc(-c3ccc(NC(=O)COC(=O)c4ccc([N+](=O)[O-])o4)cc3)sc2c1,-7,2191,-20,13,-12,20,-0.9
O=C1N[C@H]2CC=C[C@H]2Nc2ccccc21,1,3736,-13,3,11,/,4.0
CCCCN(CCCC)CCNC(=O)CSCc1ccc(C)cc1,6,4680,-25,6,10,15,2.6
CNC(=O)C(NC(=O)CNC(=O)c1ccc(Cl)cc1)C(C)(C)C (stereo not given),0,4103,-23,4,10,-4,1.8
Cc1cc2ncn(/N=C/c3ccc([N+](=O)[O-])s3)c2cc1C,/,2076,-15,/,/,1,/
COC(=O)N/N=C(\C)c1ccccc1OC(F)F,/,8174,-19,/,/,-3,/
CCC(C)(C)NC(=O)Cc1ccccc1OC,-4,8104,-28,9,14,7,9.5
CC(c1ccccc1)N1C(=O)c2ccc(C(=O)NCc3cccnc3)cc2C1=O (stereo not given),2,5938,-15,-2,6,-5,-3.2
CCN(CC)S(=O)(=O)c1ccc(/C=C/C(=O)Nc2cccc(F)c2)cc1,-7,7408,-21,5,6,5,0.0
COc1ccc(OC)c2[nH]c(=O)c(CCNS(=O)(=O)c3ccc(Cl)cc3)cc12,2,5846,3,/,/,-6,0.8
Clc1ccc2c(c1)C1=C(C(c3ccncc3)O2)C(c2ccc(Br)cc2)n2ncnc2N1 (stereo not given),10,16628*,-11,2,10,-10,-1.6
CC1CN(c2nc3ccccc3nc2SCC(=O)Nc2cccc(C(F)(F)F)c2)CC(C)O1 (stereo not given),11,4728,-25,/,/,2,-0.4
O=C(CSc1nnc(Cc2ccccc2)o1)NC1CCCCC1,7,9445,-24,8,3,-2,-0.6
COC(=O)c1cnn2c3c(c(C)nc12)CCCC3,3,10764,-35,4,2,2,0.0
CCOCN(C(=O)Cn1cnc2ccccc21)c1c(C)cccc1CC,9,5182,0,17,12,2,-0.2
Cc1cc(F)ccc1N1CCC(N2CCN(CCC(C)C)C(CCO)C2)CC1 (stereo not given),5,4337,-12,9,16,-2,-0.6
Cc1c(O)nc(SCC(=O)Nc2ccc3c4c(cccc24)CC3)n(-c2ccccc2)c1=O,1,2392,-13,-6,13,-4,7.8
COc1cc(OC)cc(C(=O)NC(C(=O)Nc2ccc(N3CCOCC3)cc2)C(C)C)c1 (stereo not given),1,6092,-8,-7,0,/,2.0
COc1ccc(CNc2nc3ccccc3n2C)c(O)c1,5,/,-164,3,9,4,3.4
CCN(Cc1ccccc1)S(=O)(=O)c1cc(C(=O)NC(C)C2CC3CCC2C3)ccc1OC (stereo not given),-12,2699,-13,4,7,-8,-7.6
Cc1ccc(OCC(=O)NC(=S)Nc2ccc(Br)cn2)cc1C,1,1958,-24,10,13,10,0.6
COc1ccc(-c2nn(CCC#N)cc2C(=O)NCc2ccccc2)cc1[N+](=O)[O-],2,4234,-23,-7,-1,0,8.4
SMILES,Sa ugtP lethal,Autofluor counter,PrP UTR inh,Mtb hypoxia inh,Mtb hypoxia inh growth,BJeLR viability,RN4220 kill
COc1cccc(OCC(Cn2c(C)nc3ccccc32)OC(C)=O)c1 (stereo not given),-12,2217,-31,0,9,6,-4.7
FC(F)(F)c1cnc2c(-c3ccccc3)n[nH]c2c1,-10,4523,-78,-7,1,-1,0.0
CCN(c1ccccc1)S(=O)(=O)c1ccc(Cl)c(C(=O)NCC2CCCO2)c1 (stereo not given),1,3106,-6,-21,-2,1,-1.4
Cc1ccc(N2C(=O)Nc3ccccc3S2(=O)=O)cc1Cl,2,3998,7,9,8,-5,3.6
COc1ccc(NC2CCCN(C(=O)CCCn3cncn3)C2)cc1 (stereo not given),/,6147,-15,/,/,-1,/
CCCc1cc(=O)[nH]c(SCC(=O)N(C)C2CCS(=O)(=O)C2)n1 (stereo not given),-3,3116,-20,8,14,3,-8.9
COCC(=O)N(Cc1cc2ccc(C)cc2[nH]c1=O)c1ccc(OC)cc1,6,23081*,1,-1,-4,6,4.1
O=C(CSc1ccc([N+](=O)[O-])cn1)Nc1ccc2c(c1)OCO2,1,4047,-20,10,1,-5,4.8
OC1CCN(c2cc(-c3ccccc3)nc3cc(-c4ccc(F)cc4)nn23)CC1,12,2696,-3,4,9,4,-1.8
Cc1ccc(C)c(NCCC#N)c1,5,11172,-11,8,11,-7,4.1
O=C(CCc1nnc2n(Cc3ccc(F)cc3)c(=O)c3ccccc3n12)NCCCN1CCOCC1,4,5623,-16,2,14,5,-0.9
COc1ccccc1/C=C/C=NN1CCN(Cc2ccccc2Cl)CC1,1,/,/,-5,4,/,-9.2
CCCNC(=O)c1c(N)n(-c2cc(OC)cc(OC)c2)c2nc3ccccc3nc12,-4,7965,-26,1,2,3,-3.8
CNc1nnc(-c2ccncc2)s1,6,16766*,-11,0,4,-1,8.4
CC(C)Oc1ccc(CNC(=O)c2cc(S(=O)(=O)N3CCOCC3)cn2C)cc1,7,5226,-25,14,5,-4,1.5
CCN(CC(=O)Nc1ccccc1C(=O)OC)S(=O)(=O)c1ccc(OC)cc1,1,5023,-10,/,/,1,2.7
Fc1cccc2sc(Nc3nc4ccccc4s3)nc12,5,2117,-138,13,9,-1,-8.1
Oc1ccccc1-c1nc(NCc2ccco2)c2ccccc2n1,-5,?,-4,7,8,1,-2.3
CC(=O)C1=C(O)C(=O)N(c2ccc(O)cc2)C1c1ccccc1 (stereo not given),9,3521,-16,5,2,-1,2.6
O=C(NCCSc1ccccc1)c1ccco1,7,3706,-38,/,/,3,3.7
COc1ccc(-c2cc(-c3ccccc3O)[nH]n2)cc1,26,2590,-71,13,11,-7,-4.2
CCOC(=O)C1=C(C)Nc2ccccc2N=C1NC(=O)c1cccc(S(=O)(=O)N(C)C)c1,-2,4437,-12,/,/,22,-1.1
COC(=O)/C(=C\Nc1ccc(Cl)c2ccccc12)c1ncc(C(F)(F)F)cc1Cl,/,2808,-16,/,/,10,/
Cc1nc2c(sc3nc4c(cc32)COC(C)(C)C4)c(=O)o1,-1,12563,/,5,11,/,-1.8
CCC1CCCCN1C(=O)CCc1nnc(Cc2c[nH]c3ccccc23)o1 (stereo not given),4,2580,-30,-5,0,0,3.2

# Sorted by count of non-hydrogen atoms (largest number first): part of the list above.
SMILES,Sa ugtP lethal,Autofluor counter,PrP UTR inh,Mtb hypoxia inh,Mtb hypoxia inh growth,BJeLR viability,RN4220 kill
CCOC(=O)C1=C(C)Nc2ccccc2N=C1NC(=O)c1cccc(S(=O)(=O)N(C)C)c1,-2,4437,-12,/,/,22,-1.1
COc1ccc(NC2CCCN(C(=O)CCCn3cncn3)C2)cc1 (stereo not given),/,6147,-15,/,/,-1,/
COc1ccc(-c2cc(-c3ccccc3O)[nH]n2)cc1,26,2590,-71,13,11,-7,-4.2
FC(F)(F)c1cnc2c(-c3ccccc3)n[nH]c2c1,-10,4523,-78,-7,1,-1,0.0
CNc1nnc(-c2ccncc2)s1,6,16766*,-11,0,4,-1,8.4

# Carrying on:
SMILES,Sa ugtP lethal,Autofluor counter,PrP UTR inh,Mtb hypoxia inh,Mtb hypoxia inh growth,BJeLR viability,RN4220 kill
O=C(c1cncc(Br)c1)N1CCc2ccccc2C1,-2,2474,-3,/,/,-3,1.5
CCC(C)(C)NC(=O)C(c1ccc(C)o1)N(C(=O)c1csnn1)c1cccc(F)c1 (stereo not given),-1,4760,-8,-7,11,-4,1.5
CCn1nc(CC(=O)Nc2nnc(CC(=O)N3CCOCC3)s2)c2ccccc2c1=O,-1,2115,-3,/,/,2,-1.2
COc1cc(C(=O)N/C(=C\c2cn(C)c3ccccc23)C(=O)NCCCN2CCOCC2)cc(OC)c1OC,-3,4676,-5,0,-3,-7,-5.7
O=C(O)c1ccccc1NC(=S)NC(=O)c1sc2ccccc2c1Cl,1,4333,-20,10,7,/,7.9
Cc1ccc(C(=O)N/C(=C\C=C\c2ccccc2)C(=O)NCc2ccco2)cc1,6,2521,-9,2,4,-1,14
CCCOc1ccc(C(=O)Nc2ccc(C)cc2[N+](=O)[O-])cc1,9,9166,-41,3,1,4,4.7
COc1ccc(N(CC(=O)NCc2ccc3c(c2)OCO3)S(=O)(=O)c2c(C)nn(C)c2C)cc1,7,4222,-19,4,4,2,-7.3
CCCCCCSc1ccc(-c2nc3ccc(C)cn3c2NCc2ccccc2)cc1,1,3661&5552,-6,2,-5,-3,0.6
Cc1cc(C)n(/N=C\c2c(O)ccc3ccccc23)c(=O)c1C(N)=O,/,9375,-20,/,/,-9,/
O=C(COC(=O)CSc1ccc(Cl)cc1)NCCc1ccccc1,7,/,4,-1,-6,/,3.8
O=C(NCc1nc(-c2ccc(Cl)cc2)no1)c1ccco1,3,3627,-19,0,-4,-9,1.8
Cc1ccc(C)c(N2CCN(C(=O)CC3Sc4ccccc4NC3=O)CC2)c1 (stereo not given),4,/,/,12,13,11,-13
C=CCC(CC(=O)NC(CO)Cc1ccccc1)C(=O)NC(COC(=O)C(CC=C)Cc1ccc(F)cc1)Cc1ccccc1 (stereo not given),18&6&-18,/,/,38*!,-10*!,/,9.3&0.3&0.1
Cc1csc(SCC(=O)c2ccc(S(=O)(=O)N3CCOCC3)cc2)n1,-1,6978,-25,9,-5,-9,-1.7
Cc1ccc(C)c(-c2cc(C(=O)NN=Cc3cccnc3)c3ccccc3n2)c1,23,/,/,-2,-6,/,1.2
CCC(C)NC(=O)CN(c1cc(C)cc(C)c1)S(=O)(=O)c1c(C)[nH]c(=O)[nH]c1=O (stereo not given),7,4234,-28,1,3,-6,2.7
COc1ccc(C(=O)OCC(=O)NC(=O)CCSc2ccccc2)cc1,7,2525,1,9,12,10,6.6
CC(=O)Nc1ccc(NC(=O)C(C)OC(=O)COc2ccc(Nc3ccccc3)cc2)cc1 (stereo not given),10,3865,-11,13,5,/,1.8
CCN(CC)S(=O)(=O)c1cccc(-c2nnc(SCC(=O)NC)n2CCc2ccccc2)c1,-7,2197,-9,2,-3,-2,-12
O=C(c1cc(C2CC2)nn1-c1ccccc1)N1CCN(c2ccc(O)cc2)CC1,-6,4946,-10,-3,-7,/,-3.1
Cc1ccc(S(=O)(=O)N2CCCCC2)cc1NC(=O)COC(=O)c1ccc(O)cc1,-12,4556,-1,1,9,4,-0.1
COC(=O)C(=Nc1ccccc1)/C(C(=O)C(=O)N(C)c1ccccc1)=C(/O)c1ccc(Cl)cc1,9,/,/,13,1,/,8.1
Cn1c(C(=O)NCCCN2CCN(c3ccccc3F)CC2)cc2c(=O)[nH]c3ccccc3c21,-2,4526,-32,10,8,-20,3.3
CCOC(=O)c1[nH]c2cc3c(cc2c1NC(=O)CN1CCC2(CC1)OCCO2)OCO3,-1,4402,-5,4,16,-6,-1.9
SMILES,Sa ugtP lethal,Autofluor counter,PrP UTR inh,Mtb hypoxia inh,Mtb hypoxia inh growth,BJeLR viability,RN4220 kill
CCCN(CCC)CCNC(=O)c1cn(C)c(=O)c2c1c1ccccc1n2C,3,4070,4,3,8,4,1.3
O=C(NC1CC1)C1CCN(S(=O)(=O)c2cc(Cl)ccc2Cl)CC1,6,4304,-23,-1,-10,3,0.7
OCCSc1nc(-c2ccccc2)nc2c1CCC2,0,2540,-11,-14,-5,-3,0.1
CCN1CCN(C(=O)NS(=O)(=O)c2ccc(C)cc2)CC1,1,3652,-39,-12,2,5,1.1
COc1cc(C(=O)NCC(c2ccccc2)N(C)C)ccc1OCC(=O)N1CCOCC1 (stereo not given),-15,3482,-18,-4,6,-3,-3.9
Cc1ccccc1NCC(=O)Nc1cc(S(=O)(=O)N2CCCCC2)ccc1C,4,3579,-19,15,3,/,5.5
COCCCN1C(=O)c2ccc(C(=O)Nc3cccc(OC)c3)cc2C1=O,5,/,-20,/,/,8,-2.1
COc1ccccc1C(=O)N/N=C(\C)c1ccc(NC(=O)C2CC2)cc1,/,2122,-15,/,/,-8,/
CCOC(=O)c1ccc(S(=O)(=O)N2CCN(C3CCCC3)CC2)cc1,-1,3424,-24,10,0,1,6.4
